AID504770: growth inhibition of E. coli YBA685, primary screen, V. cholerae RctB inhibitors | E. coli YBA685 rctB-dependent plasmid, OD600 growth, 3 h; hits give low values | z-score (no concentration beside the values) | 130,000 tested, 0.27% active | AID 504770, 2011;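 active = z-score under -2 on both plates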;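 note: wells of about 30 µL received 100 nL stock; score is relative to mean and SD of the test wells; the first replicate is given; strong numbers were not always called active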
Ba CapD inh: Bacillus anthracis CapD inhibitors, primary screen, biochemical, fluorescence intensity | 140,000 tested, 0.23% active | AID 492967, 2010 | purified CapD enzyme, fluorescence intensity read-out; hits give low values; some hits fall short of the stated cut | CapD gamma-glutamyltranspeptidase (Bacillus anthracis Ames Ancestor) | z-score (concentration not given with the values);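 active = z-score under -4 in either of two replicates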;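 note: stock transfer was 100 nL into about 40 µL; score is relative to mean and spread of the plate; one replicate is shown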
The depositor's hits bear a star; / = not tested or not shown.

A first look (six entries):
Second line of a record – AID504770 | Ba CapD inh
1	CCOC(=O)C1=C(N)n2c(s/c(=C\c3ccsc3)c2=O)=C(C#N)C1c1ccsc1 (centres undefined)
    / | 6
2	CC(=O)N=C1c2ccccc2CN1c1ccc(C#N)cc1
    0.1 | 1.2
3	Cc1c(Cc2ccccc2)c(=O)oc2c(O)c(O)ccc12
    1.6 | -0.2
4	O=S1(=O)CCC(N2CCCCC2)C1 (centres undefined)
    -0.95 | /
5	O=C(Nc1ccccc1F)Oc1ccccc1F
    -0.5 | -0.35
6	O=C(COCc1cc(-c2ccc(F)cc2)on1)N1CCOCC1
    1.2 | 57

The whole of this part, from the first entry:
Second line of a record – AID504770 | Ba CapD inh
1	CCOC(=O)C1=C(N)n2c(s/c(=C\c3ccsc3)c2=O)=C(C#N)C1c1ccsc1 (centres undefined)
    / | 6
2	CC(=O)N=C1c2ccccc2CN1c1ccc(C#N)cc1
    0.1 | 1.2
3	Cc1c(Cc2ccccc2)c(=O)oc2c(O)c(O)ccc12
    1.6 | -0.2
4	O=S1(=O)CCC(N2CCCCC2)C1 (centres undefined)
    -0.95 | /
5	O=C(Nc1ccccc1F)Oc1ccccc1F
    -0.5 | -0.35
6	O=C(COCc1cc(-c2ccc(F)cc2)on1)N1CCOCC1
    1.2 | 57
7	O=C(c1ccc2c(=O)n3c(nc2c1)CCCCC3)N1CCc2ccccc21
    0 | -0.16
8	Cc1ccc(C(=O)N2CCN(CCNC(=O)C(=O)NCc3ccccc3)CC2)cc1
    / | -0.08
9	Cc1cc(C)n2ncc(/C(N)=N/OC(=O)c3ccccc3Cl)c2n1
    / | 14
10	Cn1cc(NC(=O)NCC2CCCO2)c2ccccc2c1=O (centres undefined)
    -0.55 | 45

The listing continues:
Second line of a record – AID504770 | Ba CapD inh
11	COc1cc(C2C(C#N)=C(N)OC3=C2C(=O)CCC3)cc(Br)c1OC (centres undefined)
    / | 0.37
12	CSc1noc(-c2ccc(S(=O)(=O)NCc3ccccc3)s2)c1C#N
    1.5 | 0
13	Cn1c2ccccc2c2cnn(CC(=O)NCCCN3CCN(C4CCCCC4)CC3)c(=O)c21
    0.45 | 6.8
14	CCOC(=O)c1c(C(=O)OCC)c(C)n(CCc2c[nH]c3ccccc23)c1C
    -0.85 | 0.28
15	O=C(CCSc1nnc(-c2ccco2)o1)Nc1ccccc1
    -0.8 | /
16	CC(=O)N1c2ccccc2NC2=C(C(=O)CC(C)(C)C2)C1c1cccnc1 (centres undefined)
    -0.6 | -0.8
17	CC(NC(=O)C1=COCCO1)c1ccc(Cl)c(Cl)c1 (centres undefined)
    -0.7 | /
18	CC(C)(C)c1ccc(CCC2OCC(CN3CCOCC3)O2)cc1 (centres undefined)
    -0.25 | 0.5
19	N#Cc1c(Cl)c(Cl)c(Cl)c(Cl)c1Cl
    / | 0.58
20	Cc1ccc2oc(-c3cccc(N4C(=O)c5cccnc5C4=O)c3)nc2c1
    -0.4 | 0.23

(more compounds)
Second line of a record – AID504770 | Ba CapD inh
21	O=c1oc2ccc(Br)cc2cc1-c1nnc(Nc2cccc3ccccc23)s1
    / | -0.47
22	C=CCN=C1CC(C)(C)CC(=O)/C1=C(\O)CCC(=O)OC
    -1.3 | -0.27
23	COc1ccc(CCNC(=O)CCc2nc3sc4c(c3c(=O)[nH]2)CCCC4)cc1OC
    0.95 | -1.2
24	CC(C)C(C)(C#N)NC(=O)CSc1nc2ccc(Br)cc2c(=O)n1Cc1ccco1 (centres undefined)
    1.3 | /
25	Cc1cccc(NC(=S)N(CCN2CCCCCC2)Cc2cccs2)c1
    / | 0.57
26	O=C1CC(c2ccc(S(=O)(=O)N3CCCC3)cc2)CN1 (centres undefined)
    -0.35 | -0.14
27	O=C1CSc2sc(=O)sc2S1
    / | 0.035
28	Cc1cc(C)n(-c2ccc(Cl)c(C(=O)OCC(=O)NCc3ccco3)n2)n1
    0.4 | /
29	Oc1ccc(C2(c3ccccc3)C=Cc3c(ccc4ccccc34)O2)cc1 (centres undefined)
    / | -0.18
30	O=C(O)CCc1ccc(-c2ccccc2)n1-c1ccc(Cl)cc1
    -0.4 | 0.55

6 entries already listed, ordered by heavy-atom count, lowest first:
Second line of a record – AID504770 | Ba CapD inh
27	O=C1CSc2sc(=O)sc2S1
    / | 0.035
22	C=CCN=C1CC(C)(C)CC(=O)/C1=C(\O)CCC(=O)OC
    -1.3 | -0.27
30	O=C(O)CCc1ccc(-c2ccccc2)n1-c1ccc(Cl)cc1
    -0.4 | 0.55
28	Cc1cc(C)n(-c2ccc(Cl)c(C(=O)OCC(=O)NCc3ccco3)n2)n1
    0.4 | /
21	O=c1oc2ccc(Br)cc2cc1-c1nnc(Nc2cccc3ccccc23)s1
    / | -0.47
24	CC(C)C(C)(C#N)NC(=O)CSc1nc2ccc(Br)cc2c(=O)n1Cc1ccco1 (centres undefined)
    1.3 | /

Remaining list, next part.
Second line of a record – AID504770 | Ba CapD inh
31	O=C1C=CC(=O)N1c1ccc(-c2nc3ccccc3o2)cc1
    3.6 | 12
32	Nc1c2c3c(cccc3n(C3CCCCC3)c1=O)C(=O)c1ccccc1-2
    / | 0.02
33	CCC(C)Nc1nc(-c2ccccc2O)nc2ccccc12 (centres undefined)
    1.1 | -0.45
34	NC(=O)c1c(NC(=O)c2cc3ccccc3o2)sc2c1CCC2
    -0.5 | 0.82
35	COc1ccc(N2C(=O)c3ccc(-c4nc5ccccc5c(=O)o4)cc3C2=O)c(OC)c1
    0.35 | 0.32
36	COc1ccc(N2CCN(Cc3c(O)ccc4ccccc34)CC2)cc1
    0.95 | /
37	O=C(C1=NN(c2ccccc2)C2C(=O)N(c3ccccc3)C(=O)C12)c1ccccc1 (centres undefined)
    2.3 | -1.7
38	O=C(O)/C=C/c1cnn(-c2ccccc2)c1
    -0.85 | /
39	CCCC1CCC(C(=O)O)CC1 (centres undefined)
    -0.3 | -0.33
40	CC(=O)Nc1ccc(-c2nc3ccccc3c(=O)o2)cc1
    0.15 | 51

Additional entries:
Second line of a record – AID504770 | Ba CapD inh
41	NC(=O)CN(Cc1ccccc1)S(=O)(=O)c1ccc(F)cc1
    -0.15 | -0.06
42	CCSC1=N/C(=C\c2ccccc2)C(=O)N1c1ccc(C)c(Cl)c1
    -0.35 | -0.1
43	O=c1oc2ccccc2cc1-c1nnnn1-c1ccc(F)cc1
    -0.45 | 23
44	COC(=O)CC(=O)CSc1nc(C)cc(C(F)(F)F)c1C#N
    -0.15 | /
45	COc1ccc(C2CC(=O)C3=C(C2)NC(C)=C(C(=O)OCc2ccccc2)C3c2ccc(OC(C)=O)c(OC)c2)cc1 (centres undefined)
    / | 5.8
46	CC(=O)N[C@H]1[C@H](Oc2ccccc2)O[C@H](COC(C)=O)[C@@H](OC(C)=O)[C@@H]1OC(C)=O
    / | 1.2
47	Cc1ccc(S(=O)(=O)Nc2ccccc2C(C#Cc2ccccc2)N2CCOCC2)cc1 (centres undefined)
    / | -0.045
48	Cc1ccc(C(C)C)c(OCC(=O)OCCN2C(=O)c3ccccc3C2=O)c1
    0.45 | 0.2
49	O=C(Nc1ccccc1)c1ccccc1
    -1.6 | -0.33
50	CN(C)CCCNc1c2c(nc3cc(-c4cccc(F)c4)nn13)CCC2
    -0.85 | /

The list goes on:
Second line of a record – AID504770 | Ba CapD inh
51	O=C(CSc1nc2c(sc3ccccc32)c(=O)n1CC1CCCO1)c1ccccc1 (centres undefined)
    -0.45 | -0.52
52	COc1ccc(-c2noc(CN(C(=O)CCc3ccccc3)C(C)C)n2)cc1
    0.45 | -0.28
53	Cc1ccc(-c2ccc(C)c(Cl)c2)cc1Cl
    / | -0.065
54	O=S1(=O)c2ccccc2S(=O)(=O)N1Cc1cccc(Cl)c1
    / | -0.36
55	CCOc1ccc(-c2nn(-c3ccccc3)cc2C2NC(=O)NC(C)=C2C(=O)OC)cc1C (centres undefined)
    / | -0.35
56	Nc1nc(SCC(=O)N(CCO)CCO)nc2sc3c(c12)CCCC3
    1.8 | /
57	CCCNC(=O)Cn1cnc2sc(C(=O)NCCCN3CCOCC3)c(C)c2c1=O
    1 | 0.65
58	CCOC(=O)c1nnn(-c2nonc2N)c1CN1CCN(c2ccccc2)CC1
    / | -0.34
59	COc1cc(/C=N/NC(=O)/C=C/c2ccc3c(c2)OCO3)cc(OC)c1OC
    / | 1.1
60	Cc1ccc2c(c1)N(C(=O)N1CCC(C(=O)O)CC1)CC(C)O2 (centres undefined)
    1.4 | -0.28

Following part
Second line of a record – AID504770 | Ba CapD inh
61	CCOc1cc(/C=C2/C(=O)N(c3nn[nH]n3)N=C2C)cc(Cl)c1OCC
    -0.05 | /
62	CC1CCc2c(sc3nc(C(C)C)n4c(SCC(=O)NCc5ccco5)nnc4c23)C1 (centres undefined)
    0.75 | /
63	COCCc1cc(C(F)(F)F)c2c(=O)n(C)c(=O)n(C)c2n1
    0 | /
64	O=C(/C=C/c1cn(Cc2ccccc2)nn1)N1CCN(C2CCS(=O)(=O)C2)CC1 (centres undefined)
    1.6 | /
65	O=C(O)c1ccc(OC(F)F)cc1
    -0.9 | /
66	COc1ccc(CCNC(=O)c2sc3nc(C)nc(N4CCCCC4)c3c2C)cc1OC
    / | 0.89
67	CC(=O)Nc1cc(=O)[nH]c(NC(C)=O)n1
    / | 1.5
68	COc1ccc(CCC(=O)NCC(c2ccc(N(C)C)cc2)N2CCCC2)cc1 (centres undefined)
    -0.95 | -0.84
69	CCc1nc(SCC(=O)c2ccc(O)c(O)c2)n[nH]1
    / | -0.74
70	Cc1ccc(S(=O)(=O)/N=C2/NC(=O)/C(=C/c3ccccn3)S2)cc1
    / | -2.1

(next part)
Second line of a record – AID504770 | Ba CapD inh
71	OC(CN1CCCCCC1)Cn1c2ccc(Cl)cc2c2cc(Cl)ccc21 (centres undefined)
    / | -0.015
72	Cc1c(Cc2c(Cl)cccc2Cl)c(=O)ccn1Cc1cccs1
    / | -0.18
73	CN(C)NS(=O)(=O)c1ccc2c(c1)Cc1cc(S(=O)(=O)NN(C)C)ccc1-2
    -0.65 | 0.14
74	COC(=O)C1=C(C)N(C)C(=S)N(C)C1c1cccc(Br)c1 (centres undefined)
    0.2 | /
75	Cc1ccc2oc(=O)n(CC(=O)N3CCOCC3)c2c1
    -0.55 | -0.85
76	CCOC(=O)C1=C(C)N=c2s/c(=C\c3cccc(Br)c3)c(=O)n2C1c1ccc(OC(C)=O)cc1 (centres undefined)
    / | -0.21
77	CC(C)=NNC(=S)NC1CC2CCC1C2 (centres undefined)
    0.55 | 0.2
78	Cc1ccc(NS(=O)(=O)c2cccc(C(=O)Nc3cc(C)on3)c2)cc1
    0.65 | -0.26
79	CC(Sc1nnc(-c2ccco2)n1-c1ccccc1)C(=O)NC(c1ccccc1)c1ccccc1 (centres undefined)
    1.5 | /
80	CC(C)(C)OC(=O)C(Cc1c[nH]c2ccccc12)NC(=O)OCc1cccc([N+](=O)[O-])c1 (centres undefined)
    / | -0.53

Additional entries
Second line of a record – AID504770 | Ba CapD inh
81	Cc1cccc(-c2nc(C)c(CCC(C)C)c(=O)[nH]2)c1
    -0.9 | 0.32
82	CN(C)CCNc1ncnc2scc(-c3ccccc3)c12
    / | 0.22
83	CC(C)(CSc1ccccn1)NS(=O)(=O)c1ccccc1
    -0.8 | -0.38
84	Cc1ccc(NC(=O)CC2(CC(=O)O)CCCC2)cc1
    -0.8 | 0.24
85	CCn1c(=O)/c(=C\C=C2/SC(c3ccccc3)=C(c3ccccc3)N2C)s/c1=C1/C(=O)N(c2ccccc2)N=C1C
    / | -0.26
86	c1ccc(CSc2nnc3c(n2)-c2cccc4cccc-3c24)cc1
    / | -0.12
87	CCN(CC)C(=O)c1sc2nc(SCC#N)n(CCc3ccccc3)c(=O)c2c1C
    / | -0.97
88	CCOC(=O)c1c(NC(=O)C(C)Sc2nnc(CNC(=O)c3cccs3)n2C)sc2c1CCC2 (centres undefined)
    / | -0.68
89	CNC(=O)C1=NCCCc2cc(OC)c(OC)cc21
    -0.3 | -0.71
90	CC(C)(C)c1ccccc1OCC(=O)O
    -0.55 | /

Later entries
Second line of a record – AID504770 | Ba CapD inh
91	O=C(COC(=O)c1ccc2c(c1)OCO2)Nc1ccc(S(=O)(=O)N2CCCC2)cc1
    -1.1 | /
92	CCOc1ccc(N2CC(O)(c3ccc(OC)cc3)[N+]3=C2CCCC3)cc1 (centres undefined)
    / | 0.17
93	Cn1cc(Br)c(-c2ccc(NC(=O)Nc3ccccc3)cc2)n1
    -0.75 | 0.3
94	COC(=O)c1cn[nH]c1N
    -0.75 | 1.3
95	COc1ccc(CNC(=O)Cc2cn(C)c3ccccc23)c(OC)c1
    -0.2 | -3
96	Cn1c(N2CCNCC2)nc2ccccc21
    1.1 | -1.2
97	COc1ccc(OC)c2c(=O)cc(C(=O)O)oc12
    -0.95 | -0.16
98	CC1Cc2cc(/C(O)=C3/C(=O)C(=O)N(CCN(C)C)C3c3cccs3)ccc2O1 (centres undefined)
    -0.55 | -1.3
99	COc1cccc2c1cc1c(=O)n(CC(=O)NCCc3ccc(S(N)(=O)=O)cc3)nc(C)n12
    2.3 | 17
100	O=C(c1ccc2c(c1)N(Cc1ccccc1)C(=O)CS2)N1CCC2(CC1)OCCO2
    -0.4 | /

Other structures.
Second line of a record – AID504770 | Ba CapD inh
101	O=C(c1cccnc1Cl)N1N=C2/C(=C/c3ccco3)CCCC2C1c1ccco1 (centres undefined)
    -1.4 | /
102	O=C(O)c1snc2c(=O)[nH]cnc12
    1.5 | /
103	CCCCCCCCCCCCOC1OC(COC(C)=O)C(OC(C)=O)C(OC(C)=O)C1NC(C)=O (centres undefined)
    / | -0.2
104	CC(=O)n1c(=O)sc2ccccc21
    1.1 | -2.1
105	Nc1ccc(OCC(=O)O)cc1
    0.05 | /
106	CC1=CC(C)(C)N2C(=O)C3(OCCO3)c3cc(C)cc1c32
    -0.45 | 0.055
107	CCOc1cccc(/C=N/N2C(C)CCCC2C)c1O (centres undefined)
    -1.2 | /
108	Cc1c(C(=O)OCC2=NC3SC4=C(CCCC4)C3C(=O)N2)oc2ccccc12 (centres undefined)
    0.5 | /
109	CCNCc1ccc(OCC)c(OC)c1
    -0.05 | /
110	CCN(CC)S(=O)(=O)c1ccc(NC(=O)c2ccccc2Cl)cc1
    0.05 | -0.56
